PINK1 modulator – changes PINK1 expression; Potency, µM (series often up to 76.6 µM), for inactives: top-dose activation (PINK1 increase), hits mostly activators; PINK1 immunofluorescence, high-content cytometry, 24 h; AID 624263; hit rate 0.2% among 410,000; active = well fitted activation curve with a large enough effect; inconclusive = small, poorly fitted or top-dose-only effect; inactive = flat fitted curve, though single readings scatter; cell line not stated here;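 also: potency is read from the fitted curve at half-maximal effect; % of control where 0% means no effect; nearly all actives have a fitted effect of over 65% in size; a mitochondrial uncoupler was the plate control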
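A stable cell line was treated with compounds at 5 concentrations for 24 hours, with CCCP as control. PINK1 levels and mitochondrial localization were measured by immunofluorescence with mitochondrial, cell and nuclear markers after fixation, read by laser-scanning cytometry.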
TRPV1 potentiator – human TRPV1 potentiation | TRPV1-expressing cells, Fluo-8 calcium influx, capsaicin EC20 potentiation; host cell line not named in the record; control for the full effect not named in the record | potentiation, % at 8.33 µM | hit rate 0.02% among 320,000; active means potentiation above 80%; inconclusive means 30% to 80%; inactive means below 30%; also: 0% is about no effect
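Fluo-8 calcium influx in TRPV1-expressing cells, kinetic read (ex 480/em 520 nm). Compound added and read 3 min for agonist activity, followed by capsaicin at EC20 final and 2 min further read for enhancement.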
CtBP-E1A blk – blocks the CtBP interaction with E1A | AlphaScreen GST-E1A/His-CtBP binding, 1536-well; hits give low values; control for the full effect not named in the record | activity change, % (no concentration beside the values) | hit rate 0.49% among 340,000 | AID 651724; in the data active means activity change below about -65%; inconclusive means about -30% to -65%; inactive means above about -30%; also: % is scaled to controls: 0 for no effect and ±100 for the full control effect; compound concentration not given in the record
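Homogeneous bead-based format: GST-tagged E1A captured on glutathione donor beads, His-tagged CtBP on nickel acceptor beads; compounds precede bead addition by 2 h at 37 °C.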
D2 PAM – positive allosteric modulators of human D2 dopamine receptor. P14416. DiscoveRx D2 beta-arrestin cells, luminescence, 90 min; 100% = 57 uM dopamine signal. potentiation, % (concentration not given with the values). hit rate 0.23% among 360,000; active = potentiation of 50% or more; inconclusive = 30% to 50%; inactive = 30% or less;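 also: compound concentration not given in the record; tested on top of an EC20 dose of dopamine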
Target sequence (P14416 whole entry, looked up): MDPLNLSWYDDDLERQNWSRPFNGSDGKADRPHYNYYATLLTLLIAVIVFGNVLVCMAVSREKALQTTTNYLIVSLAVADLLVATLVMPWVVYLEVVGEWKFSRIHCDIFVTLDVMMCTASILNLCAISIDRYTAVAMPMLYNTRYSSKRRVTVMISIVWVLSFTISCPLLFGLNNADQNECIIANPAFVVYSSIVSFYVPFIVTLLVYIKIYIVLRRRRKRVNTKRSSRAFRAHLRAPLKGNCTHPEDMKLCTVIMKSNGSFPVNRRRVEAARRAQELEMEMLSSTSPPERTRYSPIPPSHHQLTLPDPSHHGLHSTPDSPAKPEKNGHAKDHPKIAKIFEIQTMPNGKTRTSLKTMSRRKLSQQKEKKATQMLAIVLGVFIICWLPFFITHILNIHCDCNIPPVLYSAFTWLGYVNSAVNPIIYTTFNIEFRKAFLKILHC
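PathHunter D2 cells, attached overnight at 37 deg C, received compound in DMSO plus dopamine at EC20 (50 nM final) for 90 min at 37 deg C. Beta-arrestin recruitment was read as luminescence after 1 h with detection reagent at ambient temperature.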
D2 ag – agonists of human D2 dopamine receptor (beta-arrestin) | P14416 | DiscoveRx PathHunter D2 beta-arrestin, luminescence, 90 min; 100% = 57 uM dopamine signal | activation, % (no concentration beside the values) | hit rate 0.084% among 360,000; in the data active = activation above about 40%; inconclusive = about 15% to 40%; inactive = below about 15%; also: compound concentration not given in the record; the text of the record calls up to 30% inactive
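Agonist mode: compounds alone added to overnight-plated D2 PathHunter cells for 90 min at 37 C, with 57 uM final dopamine (EC100) defining full response. Beta-arrestin recruitment detected by chemiluminescent reagent, read after 1 h at ambient temperature.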
Six1-Eya2 blk – inhibitors of human Six1/Eya2 interaction. Q15475+O00167. AlphaScreen GST-Six1/His-Eya2 binding, biochemical; hits give low values; control for the full effect not named in the record. activity change, % (no concentration beside the values). hit rate 0.56% among 360,000; in the data active = activity change below about -65%; inconclusive = about -30% to -65%; inactive = above about -30%; also: % is scaled to controls: 0 for no effect and ±100 for the full control effect; compound concentration not given in the record
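Homogeneous AlphaScreen proximity assay pairing GST-Six1 with His-tagged Eya2 (added as 5X mix: 250 nM and 500 nM) in 50 mM Tris pH 8.0, 300 mM NaCl, 1 mM TCEP. Glutathione donor and nickel acceptor beads; 1 h, 37 °C, dark.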
Sfp inh – inhibitors of Bacillus subtilis Sfp phosphopantetheinyl transferase; AID 1490; Potency, µM, without a hit: max response, negative = inhibition, actives largely listed as inhibitors; Biochemical Sfp PPTase activity, qHTS; Q9F4F7; hit rate 3.5% among 310,000; active = well fitted inhibition curve with a large enough effect; inconclusive = small, poorly fitted or top-dose-only effect, or another doubt; inactive = no such curve, though single readings can be large or run the other way;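 also: the enzyme is Sfp with the accession as filed and its product quenches rhodamine fluorescence; potency is read from the fitted curve at half-maximal effect; 0% = enzyme reaction without inhibitor and -100% = no enzyme wells; top concentration of the series not given in the record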
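After 15 min at room temperature with compound, 15 nM Sfp received 5 uM rhodamine-CoA plus 12.5 uM BHQ-2-ybbR (50 mM Hepes pH 7.6, 10 mM MgCl2). Rate came from the fluorescence difference over 30 min, ex 525/em 598 nm.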
Active calls of the source: *; ? = inconclusive; / = no result given; [ ] = remark or other dose.

SMILES	PINK1 modulator	TRPV1 potentiator	CtBP-E1A blk	D2 PAM	D2 ag	Six1-Eya2 blk	Sfp inh
CC[C@]12c3[nH]c4cc(CCC(=O)N(C)C)ccc4c3CCN1C(=O)[C@@H](CC(=O)NCCCn1ccnc1)C[C@@H]2C(=O)N1CCN(C(=O)C2CC2)CC1	-1.2%	/	-10	-4	-0.7	2	/
CCN1CCCC1CNC(=O)CCc1nnc(CCC2CCCCC2)o1 (stereo not drawn)	-1.6%	3	-7	-2	-1.2	7	3%
CN(C)CCCN(C(=O)c1ccc(N2C(=O)CCC2=O)cc1)c1nc2c(F)cccc2s1	-0.2%	-5	-2	-4	-4.2	2	2%
CCN1CCN(C(=O)/C=C/c2ccc3c(c2)OCO3)CC1	0.9%	-10	8	-10	0.6	3	-7%
O=C(c1[nH]c(C(F)(F)F)nc1-c1ccccc1)N1CCN(c2cccc(C(F)(F)F)n2)CC1	3.1%	/	20	-9	1.6	12	/
Cc1ccc(C(=O)NNC(=O)CSc2nc(N)cc(N)n2)cc1	6.9%	0	1	-25	1.0	2	32µM*
COc1ccc(NS(=O)(=O)c2cc(NC(=O)c3cc(F)c(F)cc3Cl)ccc2N2CCOCC2)cc1	-0.4%	/	-24	-2	-3.3	-23	/
CCOc1ccc(N(CC(=O)NCC2CCCO2)S(=O)(=O)c2ccc(C)cc2)cc1 (stereo not drawn)	0.3%	-10	8	-7	-3.8	-1	10%
COc1ccc(-c2c(-c3ccsc3)oc(=O)c3cc(OC)c(OC)cc23)cn1	0.0%	/	5	0	-1.5	1	/
O=C(Nc1cccc2ccccc12)c1ccc(F)cc1	2.9%	1	/	-7	-0.7	2	12%
CCOc1ccc(N2CC(C(=O)Nc3ccccc3C(=O)N3CCOCC3)CC2=O)cc1 (stereo not drawn)	-1.2%	3	-7	0	-1.8	3	9%
Cc1ccc(NS(=O)(=O)c2ccc(-n3cccn3)cc2)c(C)c1	0.7%	2	-2	-5	-1.7	1	15%
O=C(NCC1CCCO1)C1CCN(C2CCN(C(=O)C3CCCCC3)CC2)CC1 (stereo not drawn)	-1.5%	8	-3	-7	0.2	5	10%
O=C(CSc1nc2ccccc2o1)NC1CCCC1	-0.2%	12	11	-3	1.3	1	6%
CCn1nc(C)c(Br)c1-c1nc(CS(=O)(=O)c2ccc(F)cc2)no1	-1.9%	/	17	-6	0.7	13	3%
COc1cc(C(O)CO)ccc1O (stereo not drawn)	3.8%	-2	3	-1	-3.2	4	/
Cn1c(=O)c2c(nc(SCc3cccnc3)n2Cc2ccc(F)cc2)n(C)c1=O	-1.6%[38.3 µM]	0	6	1	-1.1	1	?
Brc1cccc(-c2n[nH]c(-c3ccccc3)n2)c1	6.2%	-19	6	-13	-2.2	4	-8%
Cc1ccc(SCC(=O)NC2CCS(=O)(=O)C2)cc1 (stereo not drawn)	-2.0%	2	-22	-6	-3.2	5	21%
Cc1nn(Cc2ccccc2)c(C)c1C(=O)N1CCN(S(=O)(=O)/C=C/c2ccccc2)CC1	-0.4%	-9	/	1	0.7	-1	/
CN(C)CC#CCOC(c1ccccc1)c1ccccc1	5.2%	-9	4	-30	-7.1	-8	6%
CN(C(=S)Nc1ccc(Oc2ccccc2)cc1)C1CCCCC1	?	-11	-13	1	-0.3	-11	1%
C=CCN(C(=O)Nc1ccc2oc(C)nc2c1)c1ccccc1	-1.4%	6	3	?	4.4	0	0%
COC(=O)CSC1=C(C#N)C(c2ccc(Cl)cc2)C(C(=O)OC)C(=O)N1 (stereo not drawn)	0.4%	-12	-5	-4	1.3	-4	-15%
CC(C)Cn1c(CN2CCN(C)C(CCO)C2)nc2ccccc21 (stereo not drawn)	-0.3%	?	-4	-3	-5.5	-14	5%
New compounds follow:
SMILES	PINK1 modulator	TRPV1 potentiator	CtBP-E1A blk	D2 PAM	D2 ag	Six1-Eya2 blk	Sfp inh
CCC1CC(C(=O)Nc2ccccc2)C(=O)O1 (stereo not drawn)	0.3%	/	0	0	-2.6	0	/
Cc1ccc(S(=O)(=O)c2nc(-c3ccccc3Cl)oc2N2CCN(C)CC2)cc1	-0.1%	/	-24	-40	-2.0	0	/
Cc1ccc2c(=O)n3c(nc2c1)C(Cc1ccccc1)NC(=O)c1cccnc1-3 (stereo not drawn)	0.0%	/	2	0	-12	-2	/
COc1ccc(N2CCN(Cc3cc(=O)oc4ccc(C)cc34)CC2)cc1	0.8%[38.3 µM]	6	-6	0	1.1	-8	12%
C[C@@H]1CCCCCCCCC(=O)OCCN1C(=O)OC(C)(C)C	6.6%	-13	6	0	-1.1	2	/
COc1ccc(CC(=O)N(C)C2CCCCC2)cc1S(=O)(=O)N1CCOCC1	-0.4%	-4	1	-1	1.3	10	7%
CCOC(=O)N1CCN(C(=O)CSc2ccc3nnc(-c4ccncc4)n3n2)CC1	0.1%	0	0	12	1.7	-24	15%
CC(C)(C)NC(=O)c1ccc2c3c(cccc13)CC2	6.4%	-4	7	-11	-0.2	4	25%
O=C(Nc1ccc(S(=O)(=O)NCC2CCCO2)cc1)c1ccccc1 (stereo not drawn)	-0.1%	7	19	-6	-0.4	6	4%
CC(=O)N1Cc2cc([N+](=O)[O-])ccc2Oc2ccccc21	1.1%	1	-1	-8	-1.8	-3	13%
CC(C)[C@H](NC(=O)c1ccccc1)C(=O)OCC(=O)Nc1ncc(Cl)cc1Cl	-0.1%	/	6	5	1.8	1	/
Cc1cccc(Nc2nc(N)c([N+](=O)[O-])c(NCCO)n2)c1	1.7%	/	-8	-3	-3.6	-12	12%
O=C(OCC(=O)N1CCc2ccccc21)c1c2c(nc3ccccc13)CCCCC2	0.3%	9	4	6	-3.5	-13	-1%
COc1ccc(Oc2ccc3c(C(F)(F)F)cc(C(F)(F)F)nc3n2)cc1	84%[38.3 µM]	-4	5	12	-5.0	-7	13%
O=C(c1cccc(Cl)c1)N1CCC(=O)N(C(COCc2cccc(Cl)c2)Cc2ccccc2)CC1 (stereo not drawn)	2.4%	-1	0	8	?	-3	-15%
Cc1ccc(S(=O)(=O)NCC(C)n2cncn2)cc1 (stereo not drawn)	2.2%	-2	-4	-2	1.8	60	19%
Cn1c(N)c(S(=O)(=O)c2ccc(Br)cc2)c2nc3ccccc3nc21	3.4%	0	-29	2	-1.0	-25	-9%
COc1ccc(CCN2CC(C(=O)N(C)C3CCOCC3)CCC2=O)cc1 (stereo not drawn)	-1.4%	-12	0	-13	?	-8	20%
COc1ccc(C(=O)NC(=S)Nc2ccc(N3CCCC3)cc2)cc1OC	16%	-15	-10	11	-1.9	-14	-26%
Cc1cc(C)c(C)c(C(=O)COC(=O)CNC(=O)CN2C(=O)c3ccccc3C2=O)c1C	2.6%	5	/	2	3.2	2	-13%
CCN(c1ccccc1)S(=O)(=O)c1cc2c(cc1C)n(C)c(=O)c(=O)n2C	2.3%	3	5	0	-3.7	0	18%
CCCCC1(CO)C(=O)N(c2ccccc2)N(c2ccccc2)C1=O	0.0%	30	-9	-6	-7.6	-8	-3%
O=C(Nc1cccc2ncccc12)c1ccc(Br)c([N+](=O)[O-])c1	1.8%	-17	12	-9	0.5	0	3%
Cc1cc(C)cc(NC(=O)COC(=O)c2ccc3c(c2)OCCO3)c1	7.3%	10	0	-4	-5.6	6	/
CCOC(=O)N1CCN(C(=O)CSc2nnc(Cc3ccccc3)o2)CC1	1.5%	-14	2	3	-1.6	-3	19%

Record cards, from the list above.
Results for Cn1c(N)c(S(=O)(=O)c2ccc(Br)cc2)c2nc3ccccc3nc21 = PINK1 modulator: 3.4%; TRPV1 potentiator: 0; CtBP-E1A blk: -29; D2 PAM: 2; D2 ag: -1.0; Six1-Eya2 blk: -25; Sfp inh: -9%
Results for CCN(c1ccccc1)S(=O)(=O)c1cc2c(cc1C)n(C)c(=O)c(=O)n2C = PINK1 modulator: 2.3%; TRPV1 potentiator: 3; CtBP-E1A blk: 5; D2 PAM: 0; D2 ag: -3.7; Six1-Eya2 blk: 0; Sfp inh: 18%
Results for O=C(Nc1cccc2ncccc12)c1ccc(Br)c([N+](=O)[O-])c1 = PINK1 modulator: 1.8%; TRPV1 potentiator: -17; CtBP-E1A blk: 12; D2 PAM: -9; D2 ag: 0.5; Six1-Eya2 blk: 0; Sfp inh: 3%

Later entries
SMILES	PINK1 modulator	TRPV1 potentiator	CtBP-E1A blk	D2 PAM	D2 ag	Six1-Eya2 blk	Sfp inh
CC1(Cc2ccccc2C#N)C(=O)Nc2ccc(-c3ccccc3)cc21 (stereo not drawn)	1.0%	/	-16	-6	1.9	2	/
N=c1c2c3c(sc2ncn1Cc1ccco1)CCCCC3	7.3%	2	-2	17	3.9	-5	13µM*
Cc1cccc(C)c1NC(=O)CSc1nnc([C@H](C)NC(=O)OC(C)(C)C)o1	27%[38.3 µM]	-5	1	-11	-0.7	3	10%
COc1ccc(N(CC(=O)NCc2ccco2)S(=O)(=O)c2ccc(C)cc2)cc1OC	14%	11	17	3	-12	6	0%
O=C(NCCc1ccccc1)C1c2ccccc2C(=O)N1Cc1cccs1 (stereo not drawn)	-0.2%	?	-7	-6	0.7	-4	-9%
COC(=O)C(C(=O)OC)C(C(C)C)C(C(=O)OC)C(=O)OC	-1.9%	-20	-1	4	-1.4	-1	-8%
CCOC(=O)C1=C(C)NC(C)=C(C(=O)OCC)C1c1ccc(Br)o1	?	2	-1	5	-0.4	-5	5%
CN(C)c1ccc(C(=O)OCC(=O)N2CCOCC2)cc1	3.4%	4	-3	-1	2.6	6	20%
CN(CC(=O)Nc1ccc(F)c(F)c1F)C(=O)CN1C(=O)NC2(CCCC2)C1=O	-2.3%	-9	1	-19	0.2	6	/
CCOC(=O)c1c(NC(=O)CN2CCCc3ccccc32)sc(C(C)=O)c1C	17%	2	-11	-10	-1.6	8	2%

For reference, two of the compounds above:
SMILES	PINK1 modulator	TRPV1 potentiator	CtBP-E1A blk	D2 PAM	D2 ag	Six1-Eya2 blk	Sfp inh
CN(CC(=O)Nc1ccc(F)c(F)c1F)C(=O)CN1C(=O)NC2(CCCC2)C1=O	-2.3%	-9	1	-19	0.2	6	/
CCOC(=O)c1c(NC(=O)CN2CCCc3ccccc32)sc(C(C)=O)c1C	17%	2	-11	-10	-1.6	8	2%

Not a hit list; 3.7% or so of the library scored in one or more.
